BJeLR viability = BJeLR cell viability loss. BJeLR (HRASV12) viability, CellTiter-Glo ATP luminescence, 48 h; reference of the scale not given here. inhibition, % (concentration not given with the values). 0.17% of 300,000 active. AID 1554;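 active = replicate mean above 50%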;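 also: 50 nL library stock added to about 25 µL; numbers are from one replicate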
PrP 5UTR inh = inhibition of PrP 5' UTR reporter expression. cell-based PrP 5' UTR mRNA reporter, plate reader. inhibition, % (test concentration not listed). 0.35% of 340,000 active. AID 488862;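 active = every replicate at 50% or more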;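 also: 0 = median of the neutral control wells; tested in H4 reporter cells; numbers are from one replicate; inactives centre near -14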
ugtP null kill = compounds lethal to S. aureus RN4220 ugtP deletion mutant; 0.54% of 330,000 active; growth inhibition, % (concentration not given with the values); OD600 growth, 16 h; some inactives read as strong as hits; AID 1259309;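 active = z-score under -3 and OD600 up to 0.15 on both plates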;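 also: plate controls were untreated wells for no effect and antibiotic for full effect; wells of about 80 µL received 100 nL stock; the first replicate is given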
Sa RN4220 lethal = kills Staphylococcus aureus RN4220 | S. aureus RN4220 growth, OD600, 16 h | 0.33% of 330,000 active | inhibition, % (no concentration beside the values);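 active = z-score of -3 or lower and OD600 up to 0.18 on both plates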;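 also: plate controls were untreated cells for no effect and reference antibiotic for full effect; stock transfer was 100 nL into about 80 µL; one replicate is shown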
Mtb hypoxia rep = reduces hypoxia-regulated biosensor signal in M. tuberculosis; M. tuberculosis hypoxia-regulated fluorescent reporter, fluorescence; fluorescence inhibition, % (concentration not given with the values); 0.1% of 300,000 active; AID 1159583;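 active = 35 to 45% if threefold the growth effect, above 45% if 1.5-fold the growth effect; inactive = the rest, general growth blockers included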;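 also: wells of about 50 µL received 100 nL stock; 0% = vehicle wells and 100% = reference inhibitor wells; whole bacteria with a GFP reporter of the hypoxia response; strong numbers were not always called active; many hits fall short of the cut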
Autofluor counter = counter-screen for toxin protease inhibitors: compound fluorescence | compound autofluorescence counterscreen, microsphere flow cytometry; hits give high values | fluorescence intensity (no concentration beside the values) | 3.1% of 360,000 active;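 active = at least 3 SD above the mean of all compounds, about 16000 in these data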;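 also: 100 nL of 1 mM stock went into each well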
Mtb hypoxia rep growth = recorded beside Mtb hypoxia rep, whose call it bears; growth inhibition, %; measured here: M. tuberculosis growth (absorbance);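 0% = vehicle and 100% = reference antibiotic; read after six days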
* hit, by the source's call; x = no result given.

Short forms: A = BJeLR viability; B = PrP 5UTR inh; C = ugtP null kill; D = Sa RN4220 lethal; E = Mtb hypoxia rep; F = Mtb hypoxia rep growth; G = Autofluor counter
1	CSc1ccc(S(=O)(=O)NCC(=O)OCC(=O)N(C)CC(=O)Nc2ccccc2Cl)cc1[N+](=O)[O-]
  A = 4; B = -1; C = -2; D = -0.3; E = -1; F = 9; G = 6362

2	O=C(NC(Cc1ccccc1)C(=O)NCCc1ccccn1)c1ccccc1 (centres undefined)
  A = -3; B = -13; C = 13; D = 2.9; E = 5; F = -3; G = 4233

3	O=C(Nc1ccc(S(=O)(=O)N2CCOCC2)cc1)c1cccc([N+](=O)[O-])c1
  A = 4; B = -19; C = 4; D = -3.7; E = -1; F = 15; G = 4200

4	CC(C)(C)n1nnnc1CN1C2CCC1CC(NC(=O)Nc1ccccc1)C2 (centres undefined)
  A = -3; B = 6; C = 0; D = -0.2; E = 1; F = 3; G = 4028

5	OC(COc1ccc(Br)cc1)CN1CCC(Cc2ccccc2)CC1 (centres undefined)
  A = 4; B = -6; C = -5; D = -1.7; E = 8; F = -3; G = 5520

6	O=C(O)c1cc(-c2ccccc2)n(-c2ccccc2C(=O)O)n1
  A = -6; B = -6; C = 2; D = 1.5; E = 5; F = 0; G = 9698

7	O=C(CN1CCN(c2ccccc2F)CC1)NC(=O)NC1CCCCC1
  A = x; B = -25; C = 10; D = 2.2; E = 17; F = 8; G = 2851

8	COc1ccc(OC)c(NS(=O)(=O)c2ccc(SC)cc2)c1
  A = 27; B = -24; C = 0; D = 10; E = 9; F = 7; G = 3271

9	Cc1ccc(-c2csc(NC(=O)C[n+]3cc(-c4ccc(C)cc4)n4c3CCC4)n2)cc1
  A = 14; B = 2; C = -12; D = 27; E = x; F = x; G = 4482

10	N#Cc1ccc(NC(=O)COC(=O)CCc2ccc(S(=O)(=O)N3CCCCC3)cc2)cc1
  A = 3; B = -13; C = -5; D = 4.9; E = 2; F = 3; G = 1916

11	CCOC(=O)c1[nH]c(=O)[nH]c1CSc1nc(C)cc(C)n1
  A = -9; B = 1; C = -5; D = -1.1; E = x; F = x; G = 4731

12	O=c1oc2ccccc2c(Nc2ccc(O)cc2)c1[N+](=O)[O-]
  A = -2; B = -10; C = 1; D = 6.0; E = 5; F = 4; G = 2891

13	Oc1ccc(O)c(Cc2nc3ccccc3[nH]2)c1
  A = 8; B = -27; C = 0; D = 10; E = 3; F = 3; G = 3653

14	CCN(CC(=O)N1CCCC1)S(=O)(=O)c1ccc(Br)cc1
  A = -2; B = -27; C = 9; D = 6.9; E = 15; F = -1; G = 3682

15	CCOc1cc(/C=N/NC(=O)c2cccnc2)ccc1OC(=O)c1ccco1
  A = -2; B = -15; C = x; D = x; E = x; F = x; G = 4419

16	O=C(COc1ccc(Cl)cc1)N(Cc1ccc(F)cc1)C1CCS(=O)(=O)C1 (centres undefined)
  A = -2; B = -20; C = 7; D = 4.6; E = -1; F = -6; G = 4211

17	Cc1ccc(S(=O)(=O)N/N=C\c2ccc(Cl)c([N+](=O)[O-])c2)cc1
  A = -3; B = -34; C = x; D = x; E = x; F = x; G = 10693

18	Cc1c(NS(=O)(=O)c2ccc(S(=O)(=O)c3ccccc3)s2)c(=O)n(-c2ccccc2)n1C
  A = -5; B = -36; C = 6; D = 13; E = 14; F = 4; G = 5338

19	COc1ccc(NC2CCCN(C(=O)CCC(=O)c3ccc(F)cc3)C2)cc1 (centres undefined)
  A = -1; B = -13; C = 12; D = 0.9; E = 6; F = -4; G = 6667

20	CC(NC(=O)CNC(=O)[C@@H]1Cc2ccccc2CN1)c1ccccc1 (some centres undefined)
  A = 5; B = -5; C = 3; D = 3.9; E = -10; F = -14; G = 4273

21	Cc1cccc(C(=O)Nc2ccc(CC(=O)O)cc2)c1
  A = 7; B = -3; C = -1; D = -0.1; E = -7; F = 3; G = 11220

22	COC(=O)C1CC(O)CN1C(=O)NC1CCCCC1 (centres undefined)
  A = 8; B = x; C = 4; D = 4.9; E = -1; F = -2; G = x

23	COCCCNC(=O)c1oc2ccc(S(=O)(=O)N(C)C3CCCCC3)cc2c1C
  A = -9; B = -17; C = -9; D = -0.6; E = 3; F = -2; G = 3999

24	COc1ccc(CCNC(=O)COC(=O)/C=C/c2cccs2)cc1
  A = -10; B = -7; C = 18; D = 4.8; E = 6; F = 14; G = 4322

25	COc1ccc(CNC(=O)C2(CC3CC(c4ccccc4)=NO3)CCN(C(=O)C3(C)CC3)CC2)cc1 (centres undefined)
  A = 0; B = -28; C = 9; D = 5.7; E = -1; F = 9; G = 3527

26	O=C(c1ccco1)N1CCN(S(=O)(=O)c2ccc(Br)cc2)CC1
  A = 5; B = -14; C = 2; D = 1.6; E = -6; F = 13; G = 3576

27	CN1CC(=O)N(C)c2nc(Br)n(C)c2C1=O
  A = -5; B = -22; C = 5; D = 3.2; E = -11; F = -5; G = 9382

28	CCn1cc(Br)c(C(=O)Nc2cccc(SC)c2)n1
  A = -3; B = -57; C = 0; D = 3.9; E = 9; F = 16; G = 4446

29	CCCCc1nc(SCC(=O)Nc2cccc(Cl)c2)n[nH]1
  A = -3; B = -5; C = x; D = x; E = x; F = x; G = 3971

30	COc1ccc(CN=C2NN=C(c3ccccc3)CS2)cc1
  A = -4; B = -52; C = -13; D = -6.3; E = -7; F = 4; G = 4172

31	O=C(NC(C(=O)N/N=C/c1c2ccccc2cc2ccccc12)c1n[nH]c(=O)c2ccccc12)c1ccccc1 (centres undefined)
  A = -4; B = 0; C = x; D = x; E = x; F = x; G = 2388

32	CC(C)OCCCN(C)C1CCN(S(=O)(=O)c2ccc(-c3cc(C(F)(F)F)no3)s2)CC1
  A = 9; B = 6; C = -8; D = 1.5; E = 6; F = 7; G = 6538

33	COc1ccc(NC(=O)c2csc(C)c2)cc1OC
  A = -15; B = -18; C = -4; D = 3.8; E = 0; F = 12; G = 5821

34	O=C1CC(c2ccco2)CC(O)=C1C=Nc1cc(Cl)ccc1Cl (centres undefined)
  A = -5; B = -32; C = 6; D = 0.8; E = 6; F = 0; G = 10090

35	CN(C)/C=C/C(=C\C(=O)C(F)(F)F)Nc1ccc(C(F)(F)F)cc1
  A = 2; B = -49; C = 9; D = 0.8; E = 8; F = 2; G = 4098

36	COc1ccc(-c2nc3ncccc3o2)cc1NC(=O)c1ccco1
  A = -5; B = -22; C = 1; D = 4.0; E = 1; F = -9; G = 5237

37	COc1ccc(NS(=O)(=O)c2cc3c4c(c2)C(C)C(=O)N4CCC3)cc1 (centres undefined)
  A = 3; B = -32; C = 5; D = 5.7; E = 2; F = 0; G = 4983

38	Cc1ccc(C(=O)Nc2ncnc3sc4c(c23)CCCCC4)cc1
  A = 4; B = -4; C = -5; D = -0.5; E = 5; F = 7; G = 2949

39	COc1ccc2[nH]cc(CCNC(=O)c3ccc([N+](=O)[O-])cc3)c2c1
  A = 14; B = -20; C = -3; D = -4.2; E = 1; F = 7; G = 3465

40	CCOc1ccc(S(=O)(=O)NCCC(=O)NCc2ccccn2)cc1
  A = -9; B = -111; C = 3; D = 3.0; E = 0; F = 1; G = 5028

41	CCOC(=O)c1c(NC(=O)C2CCCO2)sc(C)c1C (centres undefined)
  A = 2; B = 0; C = -64; D = 16; E = 13; F = 9; G = 6118

42	S=C(Nc1cccnc1)N1CCCCC1
  A = -5; B = -20; C = 1; D = -2.6; E = -1; F = -3; G = 4566

43	C/C(=N\Nc1nc2ccccc2[nH]1)c1ccc2c(c1)OCO2
  A = 0; B = -22; C = x; D = x; E = x; F = x; G = 3693

44	CCCc1cc(Nc2ccc(C)cc2)n2ncnc2n1
  A = -1; B = 18; C = -3; D = 1.8; E = -7; F = 0; G = 3176

45	COc1ccc(NC(=O)CN(C)C(=O)c2cc(S(=O)(=O)N3CCCCCC3)ccc2OC)cc1
  A = -3; B = -19; C = 13; D = 2.7; E = 5; F = 5; G = 4278

46	CC(C)Oc1ccc(C(CC(=O)NCc2ccco2)c2ccccc2)cc1 (centres undefined)
  A = -9; B = 16; C = 8; D = -7.0; E = -6; F = -5; G = 16645*

47	CC(C)Cn1nc(-c2ccccc2)c2ccccc2c1=O
  A = -4; B = -3; C = 12; D = 4.1; E = 7; F = 10; G = 3791

48	Cc1cccc(NC(=O)N2CC3CC(C2)c2cccc(=O)n2C3)c1 (centres undefined)
  A = -2; B = -16; C = 4; D = 1.4; E = 5; F = 6; G = 5880

49	CC(=O)c1cccc(N(C(=O)c2ccco2)C(C(=O)NC2CCCC2)c2ccncc2)c1 (centres undefined)
  A = -10; B = -6; C = -4; D = 3.5; E = 8; F = 4; G = 2329

50	C/C(=N\NC(=O)c1cc(-c2ccc(C)s2)nc2ccccc12)c1cccnc1
  A = -1; B = -37; C = x; D = x; E = x; F = x; G = 5840

Continuation.
Short forms: A = BJeLR viability; B = PrP 5UTR inh; C = ugtP null kill; D = Sa RN4220 lethal; E = Mtb hypoxia rep; F = Mtb hypoxia rep growth; G = Autofluor counter
51	Cc1nn(C2CCS(=O)(=O)C2)c(Cl)c1/C=C/C(=O)OCC(N)=O (centres undefined)
  A = -1; B = -21; C = 3; D = 7.1; E = 5; F = 11; G = 5269

52	COc1cc([N+](=O)[O-])ccc1NC(=O)CN1CCCC1
  A = -2; B = -12; C = 3; D = 0.8; E = -8; F = 4; G = 3219

53	COc1ccc(C(=O)CCC(=O)Nc2cccnc2)cc1OC
  A = 6; B = -21; C = 0; D = 3.4; E = 11; F = -1; G = 3747

54	CS(=O)(=O)N1c2cccc3cccc(c23)S1(=O)=O
  A = 2; B = -30; C = 7; D = 3.9; E = -11; F = -4; G = 3788

55	COC(=O)c1cc(Sc2cccc(Cl)c2Cl)ccn1
  A = 1; B = -9; C = 8; D = 11; E = 0; F = 15; G = 3254

56	COc1ccccc1NCc1nnc(-c2ccccc2)o1
  A = -10; B = -25; C = 4; D = 4.7; E = x; F = x; G = 3463

57	CC(C(=O)N1CCC2(CC1)OCCO2)C1Sc2ccccc2NC1=O (centres undefined)
  A = -14; B = -21; C = -7; D = 0.2; E = -4; F = 3; G = 2912

58	Cc1sc2nc3ccc(NCc4ccco4)nn3c(=O)c2c1C
  A = -3; B = -18; C = -11; D = 1.6; E = x; F = x; G = 2393

59	O=[N+]([O-])c1cccc(-c2nnc(-c3ccccc3)o2)c1
  A = -8; B = -54; C = 14; D = 5.2; E = 17; F = 20; G = 4422

60	O=C(Nc1ccc(S(=O)(=O)Nc2nccs2)cc1)c1cc(-c2ccccc2)nc2ccccc12
  A = 3; B = 4; C = -10; D = -5.7; E = 14; F = 18; G = 2518

61	CCNc1nc(NC(C)C)nc(Oc2ccc(OCCOc3ccccc3)nn2)n1
  A = -1; B = -24; C = -2; D = 0.5; E = 11; F = 6; G = 8954

62	C=CCc1c(C)nc2ccc(C(=O)OCC)cc2c1Cl
  A = 6; B = -38; C = 11; D = 6.5; E = 6; F = 4; G = 4442

63	COc1ccc(NC(=S)NCCNC(C)=O)cc1
  A = 2; B = -17; C = 8; D = 0.4; E = 15; F = 2; G = 4493

64	CCC1(C)Cc2nc3[nH]c(=S)n(-c4ccccc4)c(=O)c3cc2CO1 (centres undefined)
  A = 5; B = 0; C = 0; D = 1.9; E = -46; F = -1; G = 1991

In the list so far, these contain a CF3 group:
Short forms: A = BJeLR viability; B = PrP 5UTR inh; C = ugtP null kill; D = Sa RN4220 lethal; E = Mtb hypoxia rep; F = Mtb hypoxia rep growth; G = Autofluor counter
32	CC(C)OCCCN(C)C1CCN(S(=O)(=O)c2ccc(-c3cc(C(F)(F)F)no3)s2)CC1
  A = 9; B = 6; C = -8; D = 1.5; E = 6; F = 7; G = 6538

35	CN(C)/C=C/C(=C\C(=O)C(F)(F)F)Nc1ccc(C(F)(F)F)cc1
  A = 2; B = -49; C = 9; D = 0.8; E = 8; F = 2; G = 4098

Numbers 55–56, quoted:
Short forms: A = BJeLR viability; B = PrP 5UTR inh; C = ugtP null kill; D = Sa RN4220 lethal; E = Mtb hypoxia rep; F = Mtb hypoxia rep growth; G = Autofluor counter
55	COC(=O)c1cc(Sc2cccc(Cl)c2Cl)ccn1
  A = 1; B = -9; C = 8; D = 11; E = 0; F = 15; G = 3254

56	COc1ccccc1NCc1nnc(-c2ccccc2)o1
  A = -10; B = -25; C = 4; D = 4.7; E = x; F = x; G = 3463

Screening results (PubChem BioAssay)

Outcome played no part in choosing rows; overall some 4% were active at least once.
